Mtb hypoxia inh – PubChem AID 1159583. M. tuberculosis hypoxia-regulated fluorescent reporter, fluorescence. fluorescence inhibition, % (test concentration not listed). 0.1% of 300,000 active;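 active = 35 to 45% if threefold the growth effect, above 45% if 1.5-fold the growth effect; inactive = the rest, general growth blockers included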;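 note: wells of about 50 µL received 100 nL stock; 0% = vehicle wells and 100% = reference inhibitor wells; whole bacteria with a GFP reporter of the hypoxia response; strong numbers were not always called active; many hits fall short of the cut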
Sa ugtP lethal – growth inhibition of ugtP-null S. aureus, primary screen, RN4220 ugtP deletion, OD600; 0.54% of 330,000 active; 16 h; some inactives read as strong as hits; growth inhibition, % (concentration not given with the values);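 active = z-score under -3 and OD600 up to 0.15 on both plates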;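 note: plate controls were untreated wells for no effect and antibiotic for full effect; wells of about 80 µL received 100 nL stock; the first replicate is given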
Bead autofluor – compound fluorescence in toxin protease inhibitor counterscreen | compound autofluorescence counterscreen, microsphere flow cytometry; active compounds read high | fluorescence intensity (no concentration beside the values) | 3.1% of 360,000 active;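 active = at least 3 SD above the mean of all compounds, about 16000 in these data; inconclusive = too few beads counted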;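 note: 100 nL of 1 mM stock went into each well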
BJeLR viability – MLPCN primary cell-based screen for lethality selective to Ras in HRASV12 cells; BJeLR (HRASV12) viability, CellTiter-Glo ATP luminescence, 48 h; reference of the scale not given here; inhibition, % (concentration not given with the values); 0.17% of 300,000 active;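 active = replicate mean above 50%; inconclusive = above 50% but judged a plate artefact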;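 note: 50 nL library stock added to about 25 µL; numbers are from one replicate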
PrP UTR inh – inhibition of PrP 5' UTR reporter expression; cell-based PrP 5' UTR mRNA reporter, plate reader; inhibition, % (no concentration beside the values); 0.35% of 340,000 active;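 active = every replicate at 50% or more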;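 note: 0 = median of the neutral control wells; tested in H4 reporter cells; numbers are from one replicate; inactives centre near -14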
Sa RN4220 lethal – growth inhibition of S. aureus RN4220, primary screen, OD600 | inhibition, % (no concentration beside the values) | 16 h | 0.33% of 330,000 active | AID 1259311, 2017;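 active = z-score of -3 or lower and OD600 up to 0.18 on both plates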;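 note: plate controls were untreated cells for no effect and reference antibiotic for full effect; stock transfer was 100 nL into about 80 µL; one replicate is shown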
Mtb hypoxia inh growth – further read-out of Mtb hypoxia inh, marked with its call; growth inhibition, %; measured here: M. tuberculosis growth (absorbance);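 0% = vehicle and 100% = reference antibiotic; read after six days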
The depositor's hits bear a star; ? = inconclusive; . = no result given.

Sequence of screens: Mtb hypoxia inh, Mtb hypoxia inh growth, Sa ugtP lethal, Bead autofluor, BJeLR viability, PrP UTR inh, Sa RN4220 lethal
1	Cc1ccc(/C=N/N2C(=O)C3C(C2=O)C2C=CC3C23CC3)o1 (stereo unspecified)
 : ., ., ., 9683, -1.7, -23.7, .
2	COc1ccc(Cl)cc1NC(=S)N1CCN(c2ncccn2)CC1
 : 3.6, 2.2, 10.2, 4216, 4.3, -19.6, 8.5
3	COC(=O)C1=C(C)N(c2ccc(C)c(C)c2)/C(=C/c2ccco2)C1=O
 : 1.5, 7.3, 3.8, 2785, -2.9, -24.8, 6.2
4	CCCCN(CC)C(=O)c1ccc2c(c1)OCO2
 : 20.7, 10.4, 1.9, 2269, 2.7, -15.3, 2.4
5	CS(=O)(=O)N(Cc1ccccc1)c1ccc(C(=O)N2CCOCC2)cc1
 : 2.2, 5.9, 3.0, 4708, -3.1, -4.0, 3.6
6	Cc1ccc(/C=C(\NC(=O)c2ccc(C)cc2)C(=O)NCCCn2ccnc2)cc1
 : -1.3, 2.6, 3.8, 4692, 3.8, -4.4, 2.2
7	CNC(=O)c1c(NC(=O)CS(=O)(=O)c2ccc(Cl)cc2)sc(C)c1C
 : 7.1, 4.9, -4.0, ?, -1.5, -26.3, 6.7
8	CC1(C)Cc2c(cnn2-c2ccccc2)C(=O)/C1=N\NC(=O)c1ccccc1
 : 4.4, 2.2, 2.3, 6631, 2.0, -44.8, -1.6
9	O=C(NCC(=O)N(c1ccccc1)C(C(=O)NC1CCCC1)c1cccnc1)c1ccco1 (stereo unspecified)
 : ., ., 5.5, 3778, -1.3, -12.9, -0.9
10	Cn1c(=NCC(O)COc2ccccc2)sc2ccccc21 (stereo unspecified)
 : ., ., 0.8, 4616, -6.2, -11.1, -5.4
11	CC1CCCC(C)N1CC(O)COCc1ccccc1 (stereo unspecified)
 : -1.2, -8.2, -1.1, 3975, -4.4, -19.8, -4.9
12	COc1cc(NS(=O)(=O)N2CCCC2)cc(OC)c1OC
 : 3.9, 2.2, 1.5, 8364, -9.3, -33.5, 6.5
13	CN(CCOc1ccccc1)C(=O)c1ccc(Cl)c(S(=O)(=O)N2CCCCC2)c1
 : -2.1, -5.0, -3.8, ., ., -3.8, 2.8
14	O=C(N/N=C/c1ccccc1)c1cc(-c2ccc3c(c2)OCO3)n[nH]1
 : ., ., ., 2995, -7.8, -19.5, .
15	Cc1cc(C)c2c(N)c(C(=O)Nc3c(C)n(C)n(-c4ccccc4)c3=O)sc2n1
 : -0.9, 3.4, -0.3, 4477, 2.4, -4.8, 0.2
16	Cc1c(OC(C)C(=O)NCc2ccncc2)ccc2c3c(c(=O)oc12)CCC3 (stereo unspecified)
 : 8.4, -4.1, 4.2, 4004, 3.0, -0.2, 1.6
17	OC(CN1CCOCC1)Cn1cnc2ccccc21 (stereo unspecified)
 : -3.0, -11.6, 4.5, 3865, 0.5, -13.7, 0.5
18	CCC(C)(C)NC(=O)CN(C(=O)CCC(=O)Nc1ccccn1)c1ccc2c(c1)OCO2
 : -0.8, 1.1, 3.2, 3845, -4.2, -12.3, 1.7
19	CCOc1cc(N2CCOCC2)c(OCC)cc1NC(=O)c1ccc(OC)c(S(=O)(=O)N2CCOCC2)c1
 : 16.6, 10.3, 5.2, 3627, ., -9.8, 1.5
20	CCN(CC)CCOC(=O)c1ccc2c(c1)OCCO2
 : 3.0, 3.2, 8.9, 7660, 1.3, -29.3, 2.1
21	O=C(NCC1COc2ccccc2O1)c1ccc(NC(=O)C(c2ccccc2)c2ccccc2)cc1 (stereo unspecified)
 : 10.7, -5.1, 28.7, 2310, 1.5, -14.0, -9.4
22	CC12CCC(C/C1=N\OC(=O)c1ccc(F)cc1)C2(C)C (stereo unspecified)
 : ., ., ., 4210, 6.9, -15.7, .
23	Cc1nn(CC(=O)Nc2cccc(S(N)(=O)=O)c2)c(C)c1[N+](=O)[O-]
 : 11.6, 0.6, 12.5, 2051, -0.8, -15.0, 3.0
24	CCC(=O)c1ccc(OCC(=O)NCCC2=CCCCC2)c(OC)c1
 : 9.1, 4.8, 3.9, 6051, -4.0, 0.7, 2.5
25	O=C1[C@@H]2Cc3c([nH]c4ccccc34)C(c3ccccc3)N2C(=O)CN1C1CCN(Cc2ccccc2)CC1 (stereo partly specified)
 : -10.0, 17.1, 0.7, 3919, -8.1, -9.7, -8.6
26	CCC(=O)Nc1ccccc1C(=O)N1CCOCC1
 : 3.5, 1.5, -1.4, 3853, 7.5, -10.4, 4.2
27	O=C(CS(=O)(=O)c1ccccc1)NC1CCCCC1
 : 12.1, 3.9, 5.1, 3965, -2.6, -10.8, 1.8
28	O=C(O)CC12CC3CC(C1)CC(n1ncc(NCc4ccc(F)cc4Cl)c(Cl)c1=O)(C3)C2
 : 9.2, 7.9, 9.7, 5605, -1.9, -13.4, -1.9
29	COC(=O)c1nn(-c2ccccc2)c(Cl)c1/C=N/OCc1c(Cl)cccc1Cl
 : ., ., ., 4803, 0.0, -20.4, .
30	O=C(NCc1ccc(F)cc1)C1CCCN(S(=O)(=O)c2ccc(-n3cnnn3)cc2)C1 (stereo unspecified)
 : 5.1, 5.6, 12.4, 3588, 1.0, -16.6, 2.0
31	O=C(CNC(=O)c1ccccc1Br)N/N=C/c1ccccc1O
 : ., ., ., 4385, -2.0, -20.7, .
32	O=C(C(=CO)N=Nc1ccccc1)c1ccc(Cl)cc1
 : 8.0, 11.9, 32.0, ., ., ., -5.7
33	CCN(CC(=O)NC(=O)NCc1ccco1)Cc1nc2ccccc2c(=O)[nH]1
 : -6.6, -4.7, -5.7, 4711, 2.3, -10.1, 1.8
34	O=C(CNC(=O)N1CC(=O)Nc2ccccc21)Nc1ccc(Cl)cc1
 : 3.4, 1.0, 3.0, 6224, 1.5, -23.1, -2.0
35	CN(C(=O)CSc1nc(O)cc(=O)n1-c1ccccc1F)c1ccccc1
 : -0.6, 17.0, 0.6, 6275, 1.8, -6.0, 1.6
36	O=C(CSc1ccccc1)Nc1nnc(/C=C/c2ccccc2)s1
 : 6.2, -4.4, -9.8, 1900, 11.4, -12.7, 2.2
37	O=C1CC(c2ccccc2)NN1 (stereo unspecified)
 : 8.3, 12.3, 0.0, 3735, ., -4.6, 12.4
38	CCOc1cccc(C2C(C(=O)c3ccco3)=C(O)C(=O)N2Cc2ccncc2)c1 (stereo unspecified)
 : ., ., 3.3, 4521, -8.2, -4.9, 2.3
39	CCN(CC)P(=O)(C(NC(=O)OC)C(F)(F)C(F)(F)C(F)(F)C(F)F)N(CC)CC (stereo unspecified)
 : -2.6, -2.5, 1.4, 8662, -8.3, -15.8, 4.4
40	Cc1ccccc1-c1cc(C(=O)Nc2nc3c(s2)CCCC3)c2ccccc2n1
 : -3.3, 10.6, 7.6, 11575, -6.7, ., -6.3
41	Cc1cccc(NC(=O)c2ccc3c(c2)CCN3S(C)(=O)=O)c1C
 : 10.0, -1.5, 1.0, 4062, 2.0, -24.5, 2.3
42	COc1ccc(/C=C/C(=O)C2CC2)cc1COc1cccc(C)c1C
 : 15.9, 8.5, 35.4, 3816, -2.5, -9.7, -5.6
43	CC(C)(C)c1cc(C(=O)N/N=C/c2ccc([N+](=O)[O-])s2)n[nH]1
 : ., ., ., 3084, -7.8, 1.5, .
44	CC=CC=CC(=O)N1CC2(CC(c3cccc(NC(=O)CCCCC)c3)=NO2)CC1C(N)=O (stereo unspecified)
 : 9.3, 15.2, -2.3, ., ., ., 3.3
45	O=C(COc1cccc(C(F)(F)F)c1)NCC(c1ccco1)N1CCCC1 (stereo unspecified)
 : 7.2, 2.0, -0.7, 7460, ., -17.5, 1.7
46	CCOc1ccc(-n2nc3ccc(NC(=O)CC)cc3n2)cc1
 : 6.0, -0.1, -3.0, 4081, -3.6, -30.8, -1.3
47	Nc1nc(F)cc(N2CCCCCC2)n1
 : 15.0, 9.4, 2.8, 5249, 8.7, -25.4, 4.7
48	Cc1onc(-c2c(Cl)cccc2Cl)c1C(=O)ON=C(C#N)c1c(Cl)cccc1Cl
 : 10.8, 16.8, 0.4, ., ., ., 4.7
49	CCOc1cc(CNc2ccc3[nH]c(=O)[nH]c3c2)ccc1OCC(=O)NC(C)(C)C
 : 3.3, 9.7, -1.3, 4607, 3.0, -26.9, 6.2
50	C=COCCn1c(=N)n(CCC)c2ccccc21
 : ., ., -7.8, 2477, -3.6, -11.6, 5.2

Other results:
Sequence of screens: Mtb hypoxia inh, Mtb hypoxia inh growth, Sa ugtP lethal, Bead autofluor, BJeLR viability, PrP UTR inh, Sa RN4220 lethal
51	O=c1c2ccccc2nc(/C=C/c2ccc3c(c2)OCO3)n1-c1ccccc1
 : -3.7, -1.7, 1.2, 10525, 13.8, -11.3, 24.2
52	Cc1cccc(N=C2NC(=O)S/C2=C\c2ccco2)c1
 : 3.1, 1.1, -12.4, 2079, 0.9, -7.9, 7.4
53	COc1ccc(CCNC(=O)c2nnn(CC(=O)Nc3ccc(C)cc3C)c2N)cc1OC
 : -5.1, 1.5, -4.4, 6458, 0.8, -18.6, 4.1
54	C/C(=N\OC(=O)c1ccc(Br)cc1)c1ccccn1
 : ., ., ., 2396, 0.1, -23.3, .
55	N#Cc1nc(-c2ccco2)oc1NCCc1ccccc1
 : ., ., 5.4, 3363, 4.3, -7.2, 5.7
56	c1ccc(-n2nnnc2-c2cnc(-c3cccnc3)nc2-c2cccs2)cc1
 : 15.7, 5.5, 3.4, 4060, 8.5, -18.2, 8.1
57	Cc1ccc(C)c(NC(=O)CSc2nnc(CNC(=O)c3ccco3)o2)c1
 : 1.9, -4.6, 7.9, 3996, -9.3, -12.3, -0.4
58	COc1ccc(N2C(=O)NC3CC2(C)Oc2ccccc23)cc1OC (stereo unspecified)
 : ., ., 4.2, 4154, -3.7, -9.5, 1.2
59	O=C(ON=C1CCCc2ccccc21)c1cccs1
 : 6.8, -6.8, 7.5, ., ., ., 9.8
60	COc1ccc(CC2CN3C(=NCC3C)N2CC(C)NC(=O)CCC2CCCCC2)cc1 (stereo unspecified)
 : 7.6, 10.3, -8.2, ., ., ., 2.5

Part of the list above, limited to Sa RN4220 lethal and Mtb hypoxia inh growth:
No.	canonical_smiles	Sa RN4220 lethal	Mtb hypoxia inh growth
58	COc1ccc(N2C(=O)NC3CC2(C)Oc2ccccc23)cc1OC (stereo unspecified)	1.2	.
59	O=C(ON=C1CCCc2ccccc21)c1cccs1	9.8	-6.8
60	COc1ccc(CC2CN3C(=NCC3C)N2CC(C)NC(=O)CCC2CCCCC2)cc1 (stereo unspecified)	2.5	10.3

(continued)
Sequence of screens: Mtb hypoxia inh, Mtb hypoxia inh growth, Sa ugtP lethal, Bead autofluor, BJeLR viability, PrP UTR inh, Sa RN4220 lethal
61	Cc1ccc(NS(=O)(=O)c2ccccc2F)cc1S(=O)(=O)N1CCCCC1
 : 0.6, 3.8, 0.0, ?, ., -19.5, 14.2
62	CN(Cc1ccccc1)C(=O)COC(=O)C1=NNC(=O)CC1
 : 5.2, 9.6, 3.9, 2190, 3.9, -23.2, 3.4
63	Cc1ccc(S(=O)(=O)NCCOc2nc(N(C)C)nc(N3CCOCC3)n2)cc1
 : -12.6, -4.5, 2.9, 4571, 3.2, -8.7, 2.5
64	CS(=O)(=O)Nc1nnc(C2CCCC2)s1
 : -9.4, -3.3, 3.6, 4615, 2.9, -16.5, 4.7
65	O=C(CSc1nc2ccccc2c(=O)[nH]1)N1CCN(c2ccccc2F)CC1
 : -0.4, 0.2, 7.8, 4688, -0.8, 0.7, 2.4
66	O=C(CSc1ccc2c(c1)OCCO2)Nc1ccc(Cl)cn1
 : 3.7, 8.6, 10.0, 5133, -4.8, -20.5, 8.7
67	O=C(CN1CCN(Cc2cccc(C(F)(F)F)c2)CC1)NCC(=O)Nc1ccc(F)c(F)c1F
 : 11.2, 7.6, -2.0, 4561, ., 11.3, -0.1
68	CCCCNC(=O)N(O)C1N(N=Cc2ccccc2OC)C(=S)SC1(C)C (stereo unspecified)
 : 7.5, 5.6, 19.0, ., ., ., -0.3
